# CtBP-E1A blk: qHTS Assay for Inhibitors of the CtBP/E1A Interaction; AlphaScreen GST-E1A/His-CtBP binding, 1536-well; stronger effect = lower value; control for the full effect not named in the record; activity change, % (no concentration beside the values); 340,000 tested, 0.49% active; in the data active means activity change below about -65%; inconclusive means about -30% to -65%; inactive means above about -30%; note: % is set by controls: 0 for no effect and ±100 for the full control effect; compound concentration not given in the record
#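 Protein mix (5X: 125 nM each GST-E1A, His-CtBP) was incubated with pinned compound 2 h at 37 deg C in dark, in 50 mM Tris pH 8.0 buffer with 300 mM NaCl. Glutathione donor and nickel acceptor beads followed; AlphaScreen signal read after 1 h.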
# D2 potentiator: Beta-Arrestin HTS for Positive Allosteric Modulators of the Human D2 Dopamine Receptor: Potentiators; DiscoveRx D2 beta-arrestin cells, luminescence, 90 min; 100% = 57 uM dopamine signal; potentiation, % (concentration not given with the values); 360,000 tested, 0.23% active; active = potentiation of 50% or more; inconclusive = 30% to 50%; inactive = 30% or less;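 note: compound concentration not given in the record; tested on top of an EC20 dose of dopamine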
#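 PathHunter beta-arrestin assay in DiscoveRx D2 cells. Compounds were added with an EC20 of dopamine (50 nM final) for 90 min at 37 deg C. Luminescence was read 1 h after detection reagent, with 57 uM dopamine as the EC100 control.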
# D2 agonist: Beta-Arrestin HTS for Positive Allosteric Modulators of the Human D2 Dopamine Receptor: Agonists; DiscoveRx PathHunter D2 beta-arrestin, luminescence, 90 min; 100% = 57 uM dopamine signal; D(2) dopamine receptor (Homo sapiens), P14416; AID 624465, 2012; activation, % (test concentration not listed); 360,000 tested, 0.084% active; in the data active = activation above about 40%; inconclusive = about 15% to 40%; inactive = below about 15%; note: compound concentration not given in the record; the text of the record calls up to 30% inactive
#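 Agonist mode: compounds alone added to overnight-plated D2 PathHunter cells for 90 min at 37 C, with 57 uM final dopamine (EC100) defining full response. Beta-arrestin recruitment detected by chemiluminescent reagent, read after 1 h at ambient temperature.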
# TRPML1 agonist: qHTS for Agonists of the Human Mucolipin Transient Receptor Potential 1 (TRPML1); AID 624414, 2012; activation, % (test concentration not listed); TRPML1-expressing cells, Ca2+ dye fluorescence, FDSS; host cell line not named in the record; reference of the full effect not given here; 410,000 tested, 0.12% active; in the data active = activation above about 50%; inconclusive = about 30% to 50%; inactive = below about 30%; note: 0% is about no effect; the text of the record puts the active cut at 80%
#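 Tetracycline-induced TRPML1-DL cells are seeded and incubated overnight before loading with a no-wash Ca2+ dye and quencher. Agonist activity is taken from the 110 s fluorescence read following compound pin-transfer on an FDSS, before EC80 54-4 challenge.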
# PINK1 modulator: A Quantitative High throughput Screen to Identify Chemical Modulators of PINK1 Expression; PINK1 immunofluorescence, high-content cytometry, 24 h; Potency, µM (doses to about 76.6 µM), without a hit: at the top dose activation (PINK1 increase), actives largely listed as activators; 410,000 tested, 0.2% active; active = well fitted activation curve with a large enough effect; inconclusive = small, poorly fitted or top-dose-only effect; inactive = flat fitted curve, though single readings scatter; cell line not stated here;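 note: potency is the fitted concentration of half-maximal effect; % of control where 0% means no effect; nearly all actives have a fitted effect of over 65% in size; a mitochondrial uncoupler was the plate control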
#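 Decision-based qHTS: stable cells, 24 h exposure to five compound concentrations, CCCP as control. Fixed cells stained for PINK1 plus nuclear, mitochondrial and cell markers, cytometer read.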
# Six1-Eya2 inh: qHTS Assay for Inhibitors of the Six1/Eya2 Interaction; Homeobox protein SIX1 (Homo sapiens) + Protein phosphatase EYA2 (Homo sapiens), …; AlphaScreen GST-Six1/His-Eya2 binding, biochemical; stronger effect = lower value; control for the full effect not named in the record; activity change, % (no concentration beside the values); 360,000 tested, 0.56% active; in the data active = activity change below about -65%; inconclusive = about -30% to -65%; inactive = above about -30%; note: % is set by controls: 0 for no effect and ±100 for the full control effect; compound concentration not given in the record
# Target sequence (O00167 whole entry, looked up): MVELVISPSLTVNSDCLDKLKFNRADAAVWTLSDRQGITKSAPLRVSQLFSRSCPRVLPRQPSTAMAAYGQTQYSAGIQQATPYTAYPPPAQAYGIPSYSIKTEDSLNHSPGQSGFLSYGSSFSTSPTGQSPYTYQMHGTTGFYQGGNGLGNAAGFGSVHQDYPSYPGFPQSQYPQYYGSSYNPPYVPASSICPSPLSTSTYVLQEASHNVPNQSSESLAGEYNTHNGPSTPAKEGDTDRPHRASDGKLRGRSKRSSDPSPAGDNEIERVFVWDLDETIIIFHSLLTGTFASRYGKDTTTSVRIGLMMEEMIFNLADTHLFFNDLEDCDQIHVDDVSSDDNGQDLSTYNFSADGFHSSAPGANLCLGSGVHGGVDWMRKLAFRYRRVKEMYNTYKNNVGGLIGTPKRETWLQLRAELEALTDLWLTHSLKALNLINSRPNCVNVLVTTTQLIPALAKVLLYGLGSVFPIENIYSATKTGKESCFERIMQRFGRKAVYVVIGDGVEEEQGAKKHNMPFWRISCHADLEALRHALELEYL
# Target sequence (Q15475 whole entry, looked up): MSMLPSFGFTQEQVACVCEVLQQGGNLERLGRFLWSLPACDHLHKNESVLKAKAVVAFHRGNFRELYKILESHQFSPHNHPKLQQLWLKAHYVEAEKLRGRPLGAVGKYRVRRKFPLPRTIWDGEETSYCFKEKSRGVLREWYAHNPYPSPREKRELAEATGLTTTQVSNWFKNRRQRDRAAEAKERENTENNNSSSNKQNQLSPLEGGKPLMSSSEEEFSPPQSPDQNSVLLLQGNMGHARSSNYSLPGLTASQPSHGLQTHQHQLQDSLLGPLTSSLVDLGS
#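 Compounds are tested against tagged Six1 and Eya2 proteins bridged by glutathione donor and nickel acceptor beads; after a one-hour incubation at 37 °C without light, AlphaScreen emission is recorded.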
# Numbers without * were called inactive; ? = inconclusive; nt = not tested or not shown; [ ] = remark or other dose.
Compound,TRPML1 agonist,Six1-Eya2 inh,PINK1 modulator,D2 potentiator,CtBP-E1A blk,D2 agonist
Cn1nc(-c2ccccc2)cc1NC(=O)c1ccccc1,-0.8,8,1.9%,-1,-1,2.6
CC(=O)c1ccc2noc(-c3cccc(C)c3)c2c1,0.3,8,-0.4%,17,2,15
Cc1cccc(Nc2nc(-c3ccccn3)cs2)n1,0.3,?,-2.3%[38.3 µM],-20,?,-4.8
O=C(Cc1cc(=O)[nH][nH]1)N/N=C/C=C/c1ccccc1,-0.2,-14,-0.7%,-13,-6,-4.1
Cc1nn(C)c2ncc(C(N)=O)c(Oc3cccnc3)c12,0.6,8,0.1%,-9,5,-0.5
c1ccc(CN2CCN(c3nc(NCc4ccco4)c4ccccc4n3)CC2)cc1,0.9,-21,0.5%,-30,?,-0.5
Cc1nc2ccc(N=NC3=C(O)CCCC3=O)cc2s1,-0.1,-9,-0.8%,-28,-3,-2.5
COCCNC(=O)c1csc(Nc2cccc3ccccc23)n1,-0.1,-5,3.1%,-4,nt,-0.4
CC(C)CCOC(=O)C(C)Sc1n[nH]c(=O)[nH]c1=O (configuration not stated),-0.5,10,0.9%,-10,6,-1.2
COc1ccc(-c2cn3cc(C)ccc3n2)cc1F,0.2,-5,-1.1%,2,-4,-0.1
Cc1cc(-c2ccc(Cl)cc2)c(C#N)c(N)n1,1.0,-1,-2.1%[38.3 µM],-4,5,-0.4
COc1ccc(CCNC(=O)CSc2ccc(-c3cccs3)nn2)cc1OC,-1.2,-14,0.8%,-4,0,-4.7
CC1Cc2cc(/C(O)=C3/C(=O)C(=O)N(CCN4CCOCC4)C3c3ccc([N+](=O)[O-])cc3)ccc2O1 (configuration not stated),0.8,8,0.1%,-10,5,-2.1
Cc1cc2ncn(CCOc3ccccc3)c2cc1C,1.8,-4,?,-33,1,-0.1
O=C(CSc1nnc(-c2cccnc2)o1)NNC(=O)c1ccc(Br)cc1,-0.2,2,-2.0%,-5,-1,-1.6
CCNC(=S)N1CCc2ccccc2C1,-0.1,-1,1.2%,-9,-14,2.2
COc1cccc(Cn2c(=S)[nH]c3ccc(N4CCOCC4)cc3c2=O)c1,-0.1,0,17%[38.3 µM],6,14,-0.1
Cc1cc(C)c2c(=O)[nH]n(C3CCOC(C)(C)C3)c2n1 (configuration not stated),-0.8,11,0.8%,-5,0,13
CCOC(=O)C1CCN(C(=O)c2ccc3c(=O)n4nc(Nc5ccccc5OC)sc4nc3c2)CC1,-1.0,16,0.8%,-27,2,-2.0
CCOC(=O)C1=C(C)N(C)C(=O)NC1c1cccc(O)c1 (configuration not stated),0.4,3,1.5%,9,10,-1.4

# Record cards, as listed above.
# `O=C(CSc1nnc(-c2cccnc2)o1)NNC(=O)c1ccc(Br)cc1` in the list: TRPML1 agonist: -0.2; Six1-Eya2 inh: 2; PINK1 modulator: -2.0%; D2 potentiator: -5; CtBP-E1A blk: -1; D2 agonist: -1.6
# `COc1cccc(Cn2c(=S)[nH]c3ccc(N4CCOCC4)cc3c2=O)c1` in the list: TRPML1 agonist: -0.1; Six1-Eya2 inh: 0; PINK1 modulator: 17%[38.3 µM]; D2 potentiator: 6; CtBP-E1A blk: 14; D2 agonist: -0.1

# Next compounds follow:
Compound,TRPML1 agonist,Six1-Eya2 inh,PINK1 modulator,D2 potentiator,CtBP-E1A blk,D2 agonist
CCCOc1ccc(C(=O)NNC(=O)CCNC(=O)c2ccccc2Cl)cc1OC,0.2,2,-5.3%,-15,9,-2.2
Cc1ccccc1-c1cccc([C@@H]2C[C@H]3[C@H](CON3C)CN2S(=O)(=O)c2ccccc2C)c1,0.4,-21,1.0%,nt,-12,2.9
CN(CC(=O)NCCc1ccc(S(N)(=O)=O)cc1)CC(=O)Nc1ccc(F)c(F)c1F,-0.3,0,-2.3%,-5,7,-2.8
Nc1cc(OCc2ccccc2)ccc1OCc1ccccc1,1.1,-29,1.3%,-1,-22,-1.0
O=C1C2C3C=CC(C3)C2C(=O)N1c1ccc(Cc2ccncc2)cc1 (configuration not stated),0.3,4,-0.3%,5,0,1.9
COc1ccc(-c2nc3cc(C)c(Br)c(C)n3c2CC2CCCCC2)cc1OC,21,-5,6.1%,nt,-6,nt
O=C1N/C(=C\c2ccsc2)C(=O)N1Cc1ccc(F)cc1,-0.1,8,6.8%,-9,9,-1.9
CCCOc1ccc(N2C(=O)CC(N3CCC(C(=O)OCC)CC3)C2=O)cc1 (configuration not stated),0.5,3,5.7%[38.3 µM],6,7,3.0
CN(/C(=N\S(=O)(=O)c1ccccc1)c1ccccc1)c1ccc(O)cc1,1.1,-9,1.0%,-2,nt,-1.0
CCc1c(C)nc2ncnn2c1N1CCC(C(=O)Nc2ccc(C)cc2)CC1,0.9,5,?,-13,0,-2.7
CCOc1c(Cl)cc(C2NC(=O)NC(C)=C2C(=O)NCc2ccccc2)cc1OC (configuration not stated),-0.3,1,-4.4%[38.3 µM],6,18,3.9
CCc1ccc(-c2ccc(SCC(=O)NCC3CCCO3)nn2)cc1 (configuration not stated),-1.1,1,-0.1%,-22,3,1.4
CC(C)=CCC/C(C)=C/CC/C(C)=C/CC/C(C)=C/CC1=C(C)C(=O)c2ccccc2C1=O,-0.3,-3,0.8%,14,8,0.5
COc1ccc(C(CNC(=O)C(CCSC)NC(=O)c2ccccc2Cl)N2CCOCC2)cc1 (configuration not stated),-0.4,26,9.1%,-28,3,-7.3
Cc1cccc(NC(=O)CCS(=O)(=O)c2ccc3c(c2)NC(=O)CS3)n1,-0.2,0,0.4%,-6,1,0.1
CCOc1cc(NS(C)(=O)=O)c(OCC)cc1NC(=O)c1cccs1,-0.1,-6,0.2%[38.3 µM],4,-7,-0.7
O=C(CCNC(=O)Cn1ccc2ccccc2c1=O)NCc1ccc(F)cc1Cl,0.0,0,9.4%,-1,3,-0.4
Fc1ccc(-c2cc(-c3cccs3)cc(-c3ccccc3)n2)cc1,2.1,9,6.6%,4,nt,-0.1
COc1cccc(C2C(C(N)=O)=C(C)Nc3nc(CCCO)nn32)c1OC (configuration not stated),0.3,5,1.3%,-1,0,3.0
Cn1c(=O)c2c(nc(Cc3ccccc3)n2C)n(C)c1=O,-0.6,7,3.6%,-8,-8,-3.5
COc1cc(C(=O)OCc2ccc(C)cc2)cc(NC(=O)c2cccs2)c1OC,-0.2,15,9.6%,9,8,-4.6
CC1CCC(CN2CCN=C2N(C)C)CC1 (configuration not stated),1.1,8,0.1%,-10,-21,-3.1
COc1ccc(CN(C)C[C@H]2OCc3cnnn3CCCC(=O)N([C@H](C)CO)C[C@@H]2C)cc1,-0.7,9,-0.3%,1,0,-3.2
Clc1ccc(CN2CCN(c3ncccn3)CC2)cc1Cl,-1.0,-1,5.9%,20,3,65*
O=C(CSc1nnc(-c2ccc(Cl)cc2)n1CC1CCCO1)NC1CCS(=O)(=O)C1 (configuration not stated),0.0,5,1.4%,-3,-19,-5.3
O=[N+]([O-])c1ccc(Cl)c(/C=N/N2CCN(C3c4ccccc4-c4ccccc43)CC2)c1,0.0,9,0.6%,-7,1,-1.6
COC(=O)/C=C(\C)NC(=O)c1cccs1,0.1,0,5.6%[38.3 µM],-15,2,-2.3
O=C(Cn1ccc2ccccc2c1=O)NCC(=O)N1CCCCC1,0.1,9,3.6%,-3,3,6.4
CCOc1ccc(S(=O)(=O)N2CCN(C(=O)c3ccc(-n4cncn4)c([N+](=O)[O-])c3)CC2)cc1,-0.9,-5,0.6%,14,3,1.1
COc1ccc(NC(=O)c2ccc(S(=O)(=O)N3CCOCC3)cc2)c(OC)c1,0.5,2,-1.0%,-12,1,0.0
CCCCC(C(=O)O)C(C)CC(=O)Nc1cccc(C(=O)O)c1 (configuration not stated),-0.8,4,-1.7%,-8,5,-3.3
COc1cc(NS(=O)(=O)c2csc(C(N)=O)c2)cc(OC)c1,0.7,-1,-0.8%,-13,-19,-0.2
Cc1nnc(NC(=O)c2ccc(S(=O)(=O)N3CC(C)CC(C)C3)cc2)o1 (configuration not stated),0.1,-25,3.8%,-8,-24,-6.7
COc1ccc(C(C)(O)c2nc(-c3cccc(NC(C)=O)c3)cs2)cc1 (configuration not stated),-0.5,-6,-0.1%,-1,2,9.9
CC(C)OC(=O)CCCN1C(=O)c2ccc(N)cc2C1=O,-0.3,12,-1.1%,-2,3,-1.3
O=C(O)c1ccccc1-c1ccccc1C(=O)NNc1ccc([N+](=O)[O-])cc1,-0.2,-1,2.4%,-11,6,-5.7
CC1CC(C)CN(S(=O)(=O)N2CCCC(C(=O)NCc3ccccc3Cl)C2)C1 (configuration not stated),1.7,1,4.8%,-4,3,-1.7
CC(C)(C)c1ccc(C(=O)N2CCCCCC2=O)cc1,0.6,7,-0.6%,6,4,-1.0
CC(C(=O)Nc1ccccc1)C(=O)Nc1ccccc1,0.9,-11,0.7%,-3,9,0.7
O=C1C=C(c2cccc(O)c2)CCC1,-0.4,0,-0.5%,-11,3,-2.7
COc1ccc(S(=O)CC(=O)Nc2ccc(Cl)cc2Cl)cc1 (configuration not stated),-0.6,2,0.5%,-8,0,-1.1
O=C(NCc1ccccc1Cl)c1ccccc1CCc1ccccc1,4.7,-2,?,-6,nt,0.3
O=C(N/N=C/c1cccn1-c1ccc([N+](=O)[O-])cc1)c1cccnc1,1.5,-10,-1.1%,-7,-7,-1.9
O=C(Cn1cccc1C(=O)c1ccccc1)NCc1ccco1,-0.9,-5,3.6%,-10,-1,-1.7
O=S(=O)(Nc1ccc2c(c1)OCCO2)c1c(F)cccc1F,0.8,-3,0.5%,1,-2,-0.7
Cn1c(=O)[nH]c(=O)c2c1nc(CN1CCN(c3ccccc3F)CC1)n2CC(N)=O,-1.0,-9,4.1%,-5,5,0.6
COC(=O)c1sccc1-n1cccc1C(=O)C(=O)N1CC(C)OC(C)C1 (configuration not stated),-0.2,-8,-0.1%,-25,0,-2.3
CCCCCOc1ccc(C(=O)N(Cc2ccco2)C2CCS(=O)(=O)C2)cc1 (configuration not stated),0.3,-3,-2.5%[38.3 µM],-13,-5,-0.2
COc1c(/C=N/NC(=O)[C@H]2C[C@@H]2c2ccccc2)c(CCN(C)C(C)=O)cc2c1OCO2,1.4,22,2.4%,-27,3,-2.3

# With a hit mark in D2 agonist, among the entries above:
canonical_smiles | Six1-Eya2 inh | PINK1 modulator | D2 potentiator | CtBP-E1A blk | D2 agonist
Clc1ccc(CN2CCN(c3ncccn3)CC2)cc1Cl | -1 | 5.9% | 20 | 3 | 65*

# Screening results from PubChem BioAssay.
